Screens as filed in PubChem BioAssay.
Menin MLL FP FL: qHTS Assay for Inhibitors Targeting the Menin-MLL Interaction in MLL Related Leukemias: Competition With Fluorescein Labeled MLL-derived Peptide. 290,000 tested, under 10 active. FP activity change, % at 61.4 µM. Fluorescence polarization, fluorescein-MLL peptide displacement from menin; inconclusive = falling polarisation curve, or a change in total fluorescence; inactive = total fluorescence flat and polarisation flat or rising; no compound was filed as active; the % refers to the polarisation; negative = inhibition;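 further: % of control where 0% means no effect; inhibitors lower the polarisation; unlabelled MLL peptide was the positive control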
Sfp inh: qHTS Assay for Inhibitors of Bacillus subtilis Sfp phosphopantetheinyl transferase (PPTase) | 310,000 tested, 3.5% active | Biochemical Sfp PPTase activity, qHTS | 4'-phosphopantetheinyl transferase ffp (Bacillus subtilis), Q9F4F7 | Potency, µM, without a hit: max response, negative = inhibition, most hits filed as inhibitors | AID 1490, 2009; active means well fitted inhibition curve with a large enough effect; inconclusive means small, poorly fitted or top-dose-only effect, or another doubt; inactive means no such curve, though single readings can be large or run the other way;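 further: the enzyme is Sfp with the accession as filed and its product quenches rhodamine fluorescence; potency means the concentration at half of the fitted maximal effect; 0% = enzyme reaction without inhibitor and -100% = no enzyme wells; top concentration of the series not given in the record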
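Buffer: 50 mM Hepes-Na pH 7.6, 10 mM MgCl2, 0.01% Nonidet P-40, 0.01% BSA. Enzyme 15 nM, pre-exposed to compound 15 min; substrates then added and fluorescence change tracked over 30 min.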
* hit, by the source's call; & = joins results of further samples; ! = not confirmed by another sample; [ ] = another dose, or the depositor's remark. Some of the compounds tested; rates above refer to the full screens.

For CC[C@@H]1CN2CC[C@@H]1C[C@H]2[C@H](O)c1ccnc2ccc(OC)cc12 the results were Menin MLL FP FL inconclusive and Sfp inh 6.8%.
CCCCC/C=C\C/C=C\C/C=C\C/C=C\CCCC(N)=O was read as Menin MLL FP FL -0.2&0.7 and Sfp inh 27.7%&12.3%&-5.8%.
For COC1C(O)C(C)O[C@H](OC2CC[C@@]3(C=O)C4CC[C@]5(C)C(C6=CC(=O)OC6)CC[C@@]5(O)C4CC[C@@H]3C2)C1O (stereo partly specified) the results were Menin MLL FP FL 4.1 and Sfp inh -0.1%.
Screening O=c1[nH]c(O)c(C=Nc2ccccc2[N+](=O)[O-])c(=O)[nH]1 returned Menin MLL FP FL 14.1 and Sfp inh -7.5%.
For CC(=O)O[C@@H]1[C@@H](O)C2OC3C=C(C)C(=O)[C@@H](O)[C@]3(CO)C1(C)C21CO1 (stereo partly specified) the results were Menin MLL FP FL 18.6 and Sfp inh 2.4%.
`CS(=O)c1ccc(-c2nc(-c3ccc(F)cc3)c(-c3ccncc3)[nH]2)cc1` (stereo unspecified) gave Menin MLL FP FL inconclusive and Sfp inh 3.1%&-8.2%&-1.8%.
N#Cc1c(Oc2cccc(OS(=O)(=O)CCCC(F)(F)F)c2)cccc1C(F)(F)F was read as Menin MLL FP FL -2.5 and Sfp inh 20.1%.
For C[C@@H](C(=O)OC1C[C@H]2CC[C@@H](C1)N2C)c1ccc(Br)cc1 (stereo partly specified) the results were Menin MLL FP FL 11.5 and Sfp inh 3.7%.
For Cc1nnc2n1-c1sc(CCC(=O)N3CCOCC3)cc1C(c1ccccc1Cl)=NC2 the results were Menin MLL FP FL -1.9 and Sfp inh 16.8%.
Screening Cc1cc(O)ccc1Cl returned Menin MLL FP FL -0.3&2.7 and Sfp inh -9.3%&7.1%.
C=CC[C@]1(O)CC[C@H]2[C@@H]3CCC4=CC(=O)CCC4=C3C=C[C@@]21C was read as Menin MLL FP FL -13.5 and Sfp inh inconclusive.
CC/C=C\C/C=C\C/C=C\C/C=C\C/C=C\CCCC(=O)NCCCC(=O)O was read as Menin MLL FP FL -0.5 and Sfp inh 17.7%.
N#CC(C#N)=Cc1ccc(O)cc1 was read as Menin MLL FP FL inconclusive and Sfp inh 22.4µM*!.
CC12CCC3C(CC=C4CC(O)CCC43C)C1C/C(=C\N1CCCC1)C2=O (stereo unspecified) was read as Menin MLL FP FL -2.7 and Sfp inh -10.8%.
Screening CN(CC(=O)O)C(=O)[C@H](Cc1ccccc1)NC(=O)[C@@H](CCCN=C(N)N)NC(=O)[C@@H](N)Cc1ccc(O)cc1 returned Menin MLL FP FL 1.0 and Sfp inh 8.0%.
For CN(C)C(CSC(N)=O)CSC(N)=O the results were Menin MLL FP FL -3.5 and Sfp inh -27.7%.
For CCC(C)(S(=O)(=O)CC)S(=O)(=O)CC the results were Menin MLL FP FL -4.3 and Sfp inh 15.0%.
For C#CCN1C(C)=C(C(=O)CCO)[C@@H](c2cccc(-n3oo3)c2)C(C(=O)OC)=C1C the results were Menin MLL FP FL 16.3 and Sfp inh -12.4%.
Cn1sc(Cl)cc1=O was read as Menin MLL FP FL 2.9 and Sfp inh -5.7%.
Screening NCCCNCCCCNCCCNC(=O)Cc1ccc(O)cc1 returned Menin MLL FP FL -9.1[11.7 µM] and Sfp inh 17.9%.

Not a retest: an excerpt of the list.
For C#CCN1C(C)=C(C(=O)CCO)[C@@H](c2cccc(-n3oo3)c2)C(C(=O)OC)=C1C the results were Menin MLL FP FL 16.3 and Sfp inh -12.4%.
Cn1sc(Cl)cc1=O was read as Menin MLL FP FL 2.9 and Sfp inh -5.7%.
Screening NCCCNCCCCNCCCNC(=O)Cc1ccc(O)cc1 returned Menin MLL FP FL -9.1[11.7 µM] and Sfp inh 17.9%.

Following part:
Cc1cc(C)cc(C(=O)OC2CC3CCC(C2)N3C)c1 (stereo unspecified) was read as Menin MLL FP FL -9.2 and Sfp inh 15.9%.
C[C@@H]1CO1 was read as Menin MLL FP FL -2.4 and Sfp inh 3.7%.
COC1CC(OC2CC[C@@]3(C=O)C4CC[C@]5(C)C(C6=CC(=O)OC6)CC[C@@]5(O)C4CC[C@]3(O)C2)OC(C)C1O (stereo partly specified) was read as Menin MLL FP FL 8.1 and Sfp inh 3.0%.
For Cn1c2ccccc2c2cnn(CC(=O)N3CCC4(CC3)OCCO4)c(=O)c21 the results were Menin MLL FP FL -3.0 and Sfp inh 16.3%.
For CCNc1cc(N2CCNCC2)ccc1[N+](=O)[O-] the results were Menin MLL FP FL 0.3 and Sfp inh 16.5%.
For Cc1c(F)c(F)c(COC(=O)C2C(/C=C(\Cl)C(F)(F)F)C2(C)C)c(F)c1F (stereo unspecified) the results were Menin MLL FP FL inconclusive and Sfp inh 9.3%.
Screening Oc1ccc2c3c1O[C@H]1c4[nH]c5ccccc5c4C[C@]4(O)[C@H](C2)N(CC2CC2)CC[C@@]314 returned Menin MLL FP FL 37.5[activator] and Sfp inh -18.2%.
Screening CCCc1cc2c(n1Cc1ccc(C)cc1)C(C)C1CN(C(=O)c3ccccc3)C(C)(C(=O)OC)C21 (stereo unspecified) returned Menin MLL FP FL 7.0 and Sfp inh 11.9%.
NC1(c2ccccc2Cl)CCCCC1=O (stereo unspecified) was read as Menin MLL FP FL -0.8 and Sfp inh 6.7%.
`CC(C)[C@H](NC(=O)[C@H](CC(=O)O)NC(=O)[C@H](Cc1ccccc1)NC(=O)[C@@H](C)NC(=O)[C@@H](N)Cc1ccc(O)cc1)C(=O)N[C@H](C(=O)NCC(N)=O)C(C)C` gave Menin MLL FP FL 3.1 and Sfp inh -14.2%.
For CC[C@H](C)C(=O)O[C@@H]1[C@H](O)[C@@H]2[C@H](CN3C[C@@H](C)CC[C@@H]3[C@@]2(C)O)[C@@H]2C[C@@]34O[C@@]5(O)[C@@H](OC(=O)[C@](C)(O)CC)CC[C@@]3(C)[C@H]5[C@H](OC(C)=O)[C@@H](OC(C)=O)[C@H]4[C@]12O the results were Menin MLL FP FL -0.2[24.8 µM] and Sfp inh 16.7%.
CC(C)NCC(O)c1ccccc1Cl (stereo unspecified) was read as Menin MLL FP FL 1.6 and Sfp inh 10.9%.
`CCC/C=C/C=C/C(=O)OC1/C(=C/C(=O)OC)CC2CC(C(C)O)OC(=O)CC(O)CC3CC(OC(C)=O)C(C)(C)C(O)(CC4C/C(=C/C(=O)OC)CC(/C=C\C(C)(C)C1(O)O2)O4)O3` (stereo unspecified) gave Menin MLL FP FL 2.5 and Sfp inh 10.2%.
For FC(F)OC(F)(F)C(F)Cl (stereo unspecified) the results were Menin MLL FP FL 2.7 and Sfp inh 11.3%.
`N[C@@H](CCP(=O)(O)O)C(=O)O` gave Menin MLL FP FL 1.6 and Sfp inh -15.7%.
For O=C1Nc2ccc(Cl)cc2C(c2ccccc2Cl)=NC1O (stereo unspecified) the results were Menin MLL FP FL 0.0 and Sfp inh 5.1%.
`CCN1C[C@@]2(COC)C3[C@@H](OC)[C@H]4C1[C@@]3(C1C[C@]3(O)C(OC)[C@H](O)[C@@]4(OC(C)=O)C1[C@H]3OC(=O)c1ccccc1)[C@H](OC)C[C@H]2O` (stereo partly specified) gave Menin MLL FP FL 1.9 and Sfp inh -13.0%.
Screening Cc1[nH]c(=O)n(C(C)(C)C)c(=O)c1Cl returned Menin MLL FP FL 0.6 and Sfp inh 18.7%.
Screening NC(CO)Cc1ccccc1 (stereo unspecified) returned Menin MLL FP FL 1.7 and Sfp inh 9.1%.
Screening CCC(C)C(=O)O[C@@H]1C[C@@]2(C)C(c3ccoc3)OC(=O)CC23OC2(C)O[C@@]14[C@@]1(C)C(CC(=O)OC)C5(C)CC1(O)C(O)(C5OC(=O)C1(C)OC1C)C(OC(C)=O)[C@@]34O2 (stereo partly specified) returned Menin MLL FP FL 4.6 and Sfp inh 3.3%.
`CCC12CCCN3CCC4(c5ccc(OC)c(O)c5N(C(C)=O)C4CC1)C32` (stereo unspecified) gave Menin MLL FP FL inconclusive and Sfp inh 11.6%.
`C=C1[C@@H](C)[C@H]2[C@H](Cc3ccccc3)NC(=O)[C@]23[C@H](OC(C)=O)/C=C/[C@](C)(O)C(=O)[C@@H](C)C/C=C/[C@H]3[C@@H]1O` gave Menin MLL FP FL -3.0 and Sfp inh 10.8%&1.3%.
COc1cc(C2c3cc4c(cc3C(O)C3COC(=O)C23)OCO4)cc(OC)c1O (stereo unspecified) was read as Menin MLL FP FL 0.6 and Sfp inh -8.8%.
`Cn1cccc1CNCCc1ccccc1` gave Menin MLL FP FL -0.2 and Sfp inh 15.4%.
CC(C)[C@]12O[C@H]1[C@@H]1O[C@]13[C@]1(O[C@H]1C[C@H]1C4=C(CC[C@@]13C)C(=O)OC4)[C@@H]2O was read as Menin MLL FP FL 0.3 and Sfp inh 33.0%&13.8%[activator].
C=CCO[C@@H](Cn1ccnc1)c1ccc(Cl)cc1Cl was read as Menin MLL FP FL -2.5[24.8 µM] and Sfp inh -7.4%.
Screening CC1NCCOC1c1ccccc1 (stereo unspecified) returned Menin MLL FP FL -1.6 and Sfp inh -0.7%.
`Cc1ccc2[nH]c3c(c2c1)CN(C(=O)CN1CCSCC1)CC3` gave Menin MLL FP FL inconclusive and Sfp inh 6.9%.
Screening O=[N+]([O-])OC1CO[C@H]2C(O[N+](=O)[O-])COC12 (stereo partly specified) returned Menin MLL FP FL -5.7 and Sfp inh 14.7%.
For CC(=O)N[C@@H]1CCSC1=O the results were Menin MLL FP FL -0.6[24.8 µM] and Sfp inh -6.8%.
For OCC(O)Cc1ccc2c(c1)OCO2 (stereo unspecified) the results were Menin MLL FP FL 4.2 and Sfp inh 5.0%.
For C[C@H](N)Cc1cnc[nH]1 the results were Menin MLL FP FL 0.6 and Sfp inh 6.1%&-20.1%.
Screening OC(CNC1CCCCCCC1)c1ccccc1 (stereo unspecified) returned Menin MLL FP FL -5.6 and Sfp inh -10.6%.
Screening CCC1(CC)CCNC1=O returned Menin MLL FP FL 6.6 and Sfp inh -3.0%.
Screening CC1=CC(=O)c2c(O)cccc2C1=O returned Menin MLL FP FL 33.0[activator] and Sfp inh 35.5µM*!.
Screening CC(C)C[C@H](NC(=O)[C@H](Cc1ccccc1)NC(=O)CNC(=O)[C@@H](COC(C)(C)C)NC(=O)[C@@H](N)Cc1ccc(O)cc1)C(=O)N[C@H](C(=O)O)[C@@H](C)OC(C)(C)C returned Menin MLL FP FL 1.1 and Sfp inh 14.6%.
For C/C(=C\c1csc(C)n1)[C@@H]1C[C@@H]2O[C@]2(C)CCC[C@H](C)[C@H](O)[C@@H](C)C(=O)C(C)(C)[C@@H](O)CC(=O)O1 the results were Menin MLL FP FL 3.6 and Sfp inh 13.3%.
`COC(=O)c1cc(Oc2ccc(Cl)cc2Cl)ccc1[N+](=O)[O-]` gave Menin MLL FP FL -0.6 and Sfp inh -4.7%.
For Cc1ccc(N=CN(C)C=Nc2ccc(C)cc2C)c(C)c1 the results were Menin MLL FP FL 1.1 and Sfp inh 16.2%.
Screening CCCCC/C=C\C/C=C\C/C=C\C/C=C\CCCC(=O)N[C@H](C)CO returned Menin MLL FP FL -0.1&4.1 and Sfp inh 22.4µM*!.

Quoted at random: two records from the list.
`Cn1cccc1CNCCc1ccccc1` gave Menin MLL FP FL -0.2 and Sfp inh 15.4%.
Screening CCCCC/C=C\C/C=C\C/C=C\C/C=C\CCCC(=O)N[C@H](C)CO returned Menin MLL FP FL -0.1&4.1 and Sfp inh 22.4µM*!.

Following part.
`CNC(C)[C@@H](O)c1ccc(O)cc1` (stereo partly specified) gave Menin MLL FP FL -2.4 and Sfp inh -1.5%.
Screening O=C(c1cc(-c2ccccc2)on1)N1CCC2(CC1)OCCO2 returned Menin MLL FP FL -3.0 and Sfp inh 19.7%.
For Oc1ccccc1-c1ccccc1 the results were Menin MLL FP FL -1.6 and Sfp inh 13.4%.
O=[N+]([O-])O[C@H]1CO[C@H]2[C@H]1OC[C@@H]2O[N+](=O)[O-] was read as Menin MLL FP FL -3.6[24.8 µM] and Sfp inh 25.8%.
C[C@@H]1O[C@@H](OC2CC(O)C3(CO)C4C(CCC3(O)C2)C2(O)CCC(C3=CC(=O)OC3)C2(C)C[C@H]4O)[C@H](O)[C@H](O)[C@H]1O (stereo partly specified) was read as Menin MLL FP FL -4.0 and Sfp inh 6.3%.
`c1ccc2sc(C3(N4CCCCC4)CCCCC3)cc2c1` gave Menin MLL FP FL inconclusive and Sfp inh -7.6%&-19.7%.
Screening C[C@@]1(CO)[C@H](O)CC[C@@]2(C)[C@H]1CC[C@H]1C[C@@H]3C[C@@]12CC[C@]3(O)CO returned Menin MLL FP FL 4.1 and Sfp inh 30.0%&17.2%.
`CCCCCC[C@H]1C(=O)O[C@H](C)[C@H](NC(=O)c2cccc(NC=O)c2O)C(=O)O[C@@H](C)[C@@H]1OC(=O)CC(C)C` gave Menin MLL FP FL -15.0 and Sfp inh 10.3%.
Screening CCCCCCNC(=O)N[C@H](Cc1ccc(O)cc1)C(=O)NCCC[C@H]1CN2C(=NC[C@H]2CCC)N1CC1CCC1 returned Menin MLL FP FL 4.0 and Sfp inh 7.94µM*.
For CCN1CC2(OC(=O)c3ccccc3NC(C)=O)CCC(OC)[C@]34C1[C@H](CC23)[C@@]1(O)C[C@H](OC)[C@H]2CC4C1(O)[C@H]2OC (stereo partly specified) the results were Menin MLL FP FL 9.9 and Sfp inh -5.9%.
